Assay outcomes deposited in PubChem BioAssay by several laboratories.
Autofluor counter: compound fluorescence in toxin protease inhibitor counterscreen | fluorescence intensity (test concentration not listed) | AID 624483 | compound autofluorescence counterscreen, microsphere flow cytometry; hits give high values | 360,000 tested, 3.1% active;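 active = at least 3 SD above the mean of all compounds, about 16000 in these data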;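 also: 100 nL of 1 mM stock went into each well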
BJeLR viability: BJeLR cell viability loss. BJeLR (HRASV12) viability, CellTiter-Glo ATP luminescence, 48 h; reference of the scale not given here. inhibition, % (no concentration beside the values). 300,000 tested, 0.17% active. AID 1554;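 active = replicate mean above 50%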;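 also: 50 nL library stock added to about 25 µL; numbers are from one replicate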
Mtb hypoxia rep: reduces hypoxia-regulated biosensor signal in M. tuberculosis | M. tuberculosis hypoxia-regulated fluorescent reporter, fluorescence | fluorescence inhibition, % (concentration not given with the values) | 300,000 tested, 0.1% active;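 active = 35 to 45% if threefold the growth effect, above 45% if 1.5-fold the growth effect; inactive = the rest, general growth blockers included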;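 also: wells of about 50 µL received 100 nL stock; 0% = vehicle wells and 100% = reference inhibitor wells; whole bacteria with a GFP reporter of the hypoxia response; strong numbers were not always called active; many hits fall short of the cut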
PrP 5UTR inh: suppresses PrP 5' UTR mRNA reporter expression; AID 488862; cell-based PrP 5' UTR mRNA reporter, plate reader; 340,000 tested, 0.35% active; inhibition, % (no concentration beside the values);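 active = every replicate at 50% or more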;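 also: 0 = median of the neutral control wells; tested in H4 reporter cells; numbers are from one replicate; inactives centre near -14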
Sa RN4220 lethal: kills Staphylococcus aureus RN4220; 330,000 tested, 0.33% active; S. aureus RN4220 growth, OD600, 16 h; inhibition, % (test concentration not listed);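 active = z-score of -3 or lower and OD600 up to 0.18 on both plates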;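 also: plate controls were untreated cells for no effect and reference antibiotic for full effect; stock transfer was 100 nL into about 80 µL; one replicate is shown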
ugtP null kill: kills S. aureus RN4220 lacking UgtP; growth inhibition, % (no concentration beside the values); S. aureus RN4220 ugtP deletion, OD600 growth, 16 h; some inactives read as strong as hits; 330,000 tested, 0.54% active;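 active = z-score under -3 and OD600 up to 0.15 on both plates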;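 also: plate controls were untreated wells for no effect and antibiotic for full effect; wells of about 80 µL received 100 nL stock; the first replicate is given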
Mtb hypoxia rep growth: further read-out of Mtb hypoxia rep, marked with its call; growth inhibition, %; measured here: M. tuberculosis growth (absorbance);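 0% = vehicle and 100% = reference antibiotic; read after six days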
An asterisk follows results filed as active; · = not tested or not shown.

SMILES | Autofluor counter | BJeLR viability | Mtb hypoxia rep | Mtb hypoxia rep growth | PrP 5UTR inh | Sa RN4220 lethal | ugtP null kill
Oc1ccc(-c2cnns2)c(O)c1 | 2311 | -9.6 | 5.9 | 0.1 | 1.3 | -2.0 | 7.9
NC(=NOC(=O)CCC(=O)O)c1ncc(C(F)(F)F)cc1Cl | · | · | -1.8 | 1.7 | · | -1.9 | -8.9
CCc1sc(C(=O)Nc2ccsc2C(=O)OC)cc1Br | 16369* | 10.3 | 5.9 | 6.4 | -1.5 | 3.6 | 11.5
COc1cccc(CCC2C(=O)CCCC2=O)c1 | 3962 | · | -1.8 | 3.4 | -15.2 | 4.7 | 0.0
CCC(=O)c1c(NC(C)C)cc(C)oc1=O | 3212 | -4.9 | 13.8 | 2.5 | -3.4 | 7.7 | 4.8
COc1ccc(NC(=O)c2cn(CCC#N)nc2-c2cccc([N+](=O)[O-])c2)cc1 | 4360 | 2.1 | 9.5 | -0.7 | -12.2 | 1.3 | 2.0
Cc1ccccc1Nc1cc2ccccc2c(=O)[nH]1 | 2347 | 3.0 | · | · | -31.9 | -9.7 | 5.5
COc1cccc(C=NNC(=O)Cn2cnc3c2c(=O)n(C)c(=O)n3C)c1 | · | · | -4.4 | -8.3 | · | 2.1 | 4.4
O=C(CN1CCc2ccccc21)NC(=O)NCc1ccccc1 | 4554 | -8.5 | 3.0 | -2.8 | -30.6 | 41.5 | 6.2
CCOC(=O)CNc1nc(C#N)nc(N2CCOCC2)n1 | 4165 | -13.5 | 10.5 | 7.6 | -9.0 | 6.0 | 0.1
CC1(OC(=O)C2CCCC2)C(=O)C=C2C=C(c3ccc(C#N)cc3)OC=C2C1=O (configuration not stated) | 4344 | -1.5 | · | · | -17.4 | · | ·
COCCCNC(=S)NNC(=S)NCCCOC | 5895 | 8.0 | 4.6 | 6.5 | -27.1 | 3.5 | 11.0
CCC(C)NC(=S)N1CCN(C(c2ccccc2)c2ccccc2)CC1 (configuration not stated) | 2151 | -18.5 | -4.0 | 7.1 | -16.7 | -2.5 | 4.2
CC(C)N1CCN(Cc2ccncc2)CC1CCO (configuration not stated) | 4877 | -6.5 | 5.1 | 13.8 | -23.5 | 1.8 | 8.0
O=C(Cn1c(C(=O)NCC2CCCO2)cc2sccc21)c1ccccc1 (configuration not stated) | 11389 | 5.1 | 14.9 | 3.4 | -28.2 | 1.7 | 0.5
COc1cc2c(-c3cc(F)cc(F)c3)c(-c3ccsc3)oc(=O)c2cc1OC | 4192 | · | 16.5 | 7.7 | -8.8 | 9.5 | 12.4
CCc1ccc(N(C(=O)c2snc(C(N)=O)c2N)C(C(=O)NCC2CCCO2)c2ccco2)cc1 (configuration not stated) | 3531 | 2.4 | 4.6 | 2.6 | -27.3 | 0.4 | 8.7
O=C(CC1C(=O)N(c2ccccc2)C(=S)N1c1ccccc1)c1ccccc1 (configuration not stated) | 2102 | -1.5 | 3.8 | 4.8 | -15.6 | -3.9 | 3.7
CCN(C(=O)COC(=O)c1ccco1)c1cccc2ccccc12 | 9289 | · | 5.2 | -2.2 | 0.4 | 4.7 | -2.2
O=C(CSc1ccc(-c2ccccc2)nn1)NC1CCCCC1 | 4894 | 7.7 | -2.6 | -4.1 | -24.5 | -0.1 | 4.3
O=C(Nc1ccc(F)cc1)c1cn(-c2ccccc2)nc1-c1ccncc1 | 3229 | 9.0 | 0.0 | 3.4 | -20.7 | 0.9 | -9.3
Cc1ccc(NC(=O)[C@H](NC(=O)[C@@H]2Cc3ccccc3CN2)c2ccccc2)cc1 | 5801 | 8.2 | -0.9 | -1.8 | -19.6 | 0.9 | 12.4
O=C(NCCO)c1cc2c([nH]c3ccccc32)c(-c2ccccc2)n1 | 3749 | 0.3 | 11.3 | 15.2 | 5.8 | 6.0 | -7.6
COC(=O)c1ccc(C#Cc2ccccc2)o1 | 6167 | 2.9 | 8.2 | 3.1 | -47.4 | 6.4 | 8.2
O=C(COc1ccccc1)Nc1cccc(-c2cn3cccnc3n2)c1 | 4500 | 5.9 | 3.9 | 0.9 | -6.7 | 7.0 | -9.9

Continued; it opens with the 5 that closed the last part.
SMILES | Autofluor counter | BJeLR viability | Mtb hypoxia rep | Mtb hypoxia rep growth | PrP 5UTR inh | Sa RN4220 lethal | ugtP null kill
O=C(Nc1ccc(F)cc1)c1cn(-c2ccccc2)nc1-c1ccncc1 | 3229 | 9.0 | 0.0 | 3.4 | -20.7 | 0.9 | -9.3
Cc1ccc(NC(=O)[C@H](NC(=O)[C@@H]2Cc3ccccc3CN2)c2ccccc2)cc1 | 5801 | 8.2 | -0.9 | -1.8 | -19.6 | 0.9 | 12.4
O=C(NCCO)c1cc2c([nH]c3ccccc32)c(-c2ccccc2)n1 | 3749 | 0.3 | 11.3 | 15.2 | 5.8 | 6.0 | -7.6
COC(=O)c1ccc(C#Cc2ccccc2)o1 | 6167 | 2.9 | 8.2 | 3.1 | -47.4 | 6.4 | 8.2
O=C(COc1ccccc1)Nc1cccc(-c2cn3cccnc3n2)c1 | 4500 | 5.9 | 3.9 | 0.9 | -6.7 | 7.0 | -9.9
N/C(CN1CCCC1=O)=N\O | 24371* | 2.1 | · | · | -12.4 | · | ·
CSc1sc(C(=O)O)c2c1C(=O)CC(C)(C)C2 | 3991 | -12.9 | -2.8 | -12.6 | -15.5 | -1.7 | -2.1
CC(C)=CC(=O)Nc1cccc(S(=O)(=O)NC2=NCCCCC2)c1 | 3553 | · | 23.0 | 49.9 | -28.4 | 3.7 | 2.6
O=C(COc1ccc(/C=C\[N+](=O)[O-])cc1)N1CCOCC1 | 3868 | 1.5 | 14.6 | 9.4 | -21.8 | 7.4 | -3.0
CC(=O)N(c1ccc2oc(=O)sc2c1)S(=O)(=O)c1ccc(C)cc1 | 3831 | -11.5 | 7.5 | 4.1 | -31.8 | 28.1 | 3.8
Cc1ccc(Nc2nnc(SCC(=O)Nc3cccnc3Cl)s2)cc1C | 1929 | 4.6 | 17.5 | 20.6 | -8.1 | -4.0 | -9.5
COc1cc(/C=N/NC(=O)c2c(-c3ccccc3)noc2C)cc(OC)c1OC | 2448 | 6.6 | · | · | -10.2 | · | ·
CCCCN(C(=O)NC(=O)Nc1ccccc1C)S(C)(=O)=O | 6472 | -9.9 | 8.5 | 6.8 | -10.3 | 4.8 | -8.3
CCN(CC)c1ncnc2scc(C3COc4ccccc4O3)c12 (configuration not stated) | 3480 | -12.7 | · | · | -26.0 | 4.0 | 35.5
O=S(=O)(Cc1ccccc1)c1ccccc1-c1nnc(-c2ccccc2)o1 | 2449 | 5.0 | · | · | -11.9 | 6.2 | -13.5
COc1ccc(CNC(=O)C(c2ccncc2)N(C(=O)Cc2cccs2)c2cccc(C)c2)cc1 (configuration not stated) | 9138 | 0.8 | -4.1 | -7.2 | -5.4 | 2.6 | 1.9
COc1ccc(C=NNC(=O)c2ccn[nH]2)cc1CN1CCOCC1 | · | · | 13.0 | 9.7 | · | 2.2 | 8.6
COc1ccc(NC(=O)Cn2nc(C)c([N+](=O)[O-])c2C)cn1 | 4188 | -2.1 | -0.6 | 6.8 | -9.5 | 0.4 | 6.2
Cc1cc(C)n(-c2ncnc3sc(C)c(C)c23)n1 | 2509 | -14.6 | · | · | -8.6 | 6.8 | 2.5
CCOc1cc2c(cc1OCC)C(C(=O)O)C(c1cc(OC)c(OC)c(OC)c1)N(C)C2=O (configuration not stated) | 4472 | 0.1 | · | · | -1.2 | -0.2 | 0.3
CCCCOc1ccccc1Cn1c(=O)oc2ccccc21 | 3206 | -11.7 | 7.9 | 13.6 | -34.6 | -13.5 | -1.1
Cc1ccc2cc(C)c(SCC(=O)Nc3cc(C)on3)nc2c1 | 5470 | -5.2 | 1.6 | 5.8 | 0.3 | 1.9 | 7.9
COC(=O)C1N2C(=O)C(NC(=O)COc3ccccc3)C2SC1(C)C (configuration not stated) | · | · | 19.2 | 2.2 | · | 100.6* | 100.7*
CCC(=NNC(=O)CSCc1ccccc1Cl)c1ccc2c(c1)OCCO2 | · | · | -6.4 | -2.9 | · | -0.2 | 12.5
COc1ccccc1N(C(=O)CNC(=O)c1ccco1)C(C(=O)NC1CCCC1)c1ccncc1 (configuration not stated) | 2829 | -1.8 | · | · | -8.6 | 3.1 | 2.3
Cc1ccc(Nc2nc(NCCCN3CCOCC3)nc(N)c2[N+](=O)[O-])cc1C | 2578 | 3.9 | -3.7 | 13.8 | 6.8 | -1.9 | -6.4
CC(CCc1ccccc1)NC(=O)CNc1cccc([N+](=O)[O-])c1 (configuration not stated) | 3555 | 4.9 | 8.9 | -10.3 | -8.4 | -5.9 | 3.6
CCNS(=O)(=O)c1cc(Br)ccc1OC | 8751 | -6.0 | 2.7 | 1.1 | -30.8 | 0.6 | -5.7
NS(=O)(=O)c1ccc(CNC(=O)C2CCCN2C(=O)c2cccs2)cc1 (configuration not stated) | 3904 | · | 6.9 | 7.0 | -4.7 | 2.7 | 4.3
O=C(NC1CCS(=O)(=O)C1)N1CCCCC1 (configuration not stated) | 3056 | -4.9 | · | · | -24.4 | -2.2 | -2.5

Carrying on.
SMILES | Autofluor counter | BJeLR viability | Mtb hypoxia rep | Mtb hypoxia rep growth | PrP 5UTR inh | Sa RN4220 lethal | ugtP null kill
COc1ccc(N(CC(=O)Nc2ccc3c(c2)OCO3)S(=O)(=O)c2ccccc2)c(OC)c1 | 3353 | 2.6 | 16.4 | 8.7 | -10.3 | 0.3 | -0.3
O=C(/C(=C(/[O-])c1ccccc1)[n+]1ccccc1)c1ccc([N+](=O)[O-])cc1 | 11339 | -7.9 | · | · | -41.8 | · | ·
COc1ccccc1NC(=O)Nc1ncccc1C | 22096* | 2.1 | · | · | -9.5 | · | ·
Cc1cc(C)c(NC(=O)CS(=O)CC(=O)N2CCN(c3ccc(F)cc3)CC2)c(C)c1 (configuration not stated) | 9715 | -4.7 | 13.1 | 8.2 | -11.7 | 1.3 | 4.0
Cc1ccc(-c2nc3c(=O)n(C)c4ccccc4c3o2)cc1 | 8186 | -9.7 | 6.5 | 9.7 | -31.5 | 5.7 | 5.3
CCC(C)NC(=O)CCc1c(C)nc2nc(-c3cc(OC)cc(OC)c3)nn2c1C (configuration not stated) | 4530 | -29.1 | 6.9 | 9.0 | -10.4 | 0.3 | 3.3
COc1ccc(/C=C2\SC(=O)N(CCC(=O)NCCCn3ccnc3)C2=O)cc1 | 5017 | 11.1 | 14.4 | 4.8 | -44.5 | 2.4 | 5.7
Cc1ccc2nc(C)c(C(=O)N/N=C/c3ccc(C(=O)O)cc3)cc2c1 | 2649 | 3.7 | · | · | -16.4 | · | ·
COc1ccc(S(=O)(=O)NCc2ccccn2)cc1OC | 4017 | 1.8 | 12.5 | 2.3 | -67.8 | 3.0 | 21.2
CCn1nc(NC(=O)c2ccco2)c2cc3cc(C)ccc3nc21 | 6028 | 2.5 | 1.1 | -3.6 | -13.9 | 11.3 | -19.4
COc1cccc(NC(=S)N2CCCC2)c1 | 2291 | -0.9 | 9.3 | 11.8 | -17.8 | 6.5 | -1.2
COc1cc(OC)c(C2=NOC(C(=O)NCCc3ccccc3)C2)cc1Cl (configuration not stated) | 23621* | -11.0 | 4.5 | 4.1 | -31.7 | 1.7 | 0.0
O=C1CCC(/C=C/c2ccccc2)=NN1Cc1ccc(Cl)c(Cl)c1 | 2074 | 2.3 | · | · | -1.1 | · | ·
O=C(NS(=O)(=O)Oc1ccc(F)cc1F)OC[C@@H]1CCCN2CCCCC12 (some centres not stated) | 4204 | -1.2 | -3.0 | -8.3 | -45.0 | 3.3 | 5.1
Cc1cnc([N+](=O)[O-])n1CCOC(=O)NC(=O)c1ccc(C(F)(F)F)cc1 | 3263 | 15.9 | 12.4 | -5.4 | -11.8 | -0.2 | 3.9
CCC(ONc1ccccc1C(F)(F)F)(C(=O)NN(C)C)c1ccccc1 (configuration not stated) | 2906 | · | 14.8 | 8.2 | 2.3 | -0.1 | 9.2
O=C(Nc1ccn(Cc2c(F)c(F)cc(F)c2F)n1)c1cccc(Cn2cc([N+](=O)[O-])cn2)c1 | 23743* | -13.1 | 3.5 | -0.4 | -15.5 | 3.3 | -2.4
